Screening results (PubChem BioAssay)
KCNQ2 inh: KCNQ2 potassium channel inhibitors, primary screen, cell-based, CHO-K1, FluxOR thallium flux, B-score (AID 2156). Potassium voltage-gated channel subfamily KQT member 2 (Rattus norvegicus), O88943. 20 min; stronger effect = lower value; only compounds with negative scores are shown here; some inactives read as strong as hits. B-score at 10 µM. hit rate 1.1% among 310,000;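 active means fluorescence ratio B-score at most minus 3 library SDs, with starting brightness B-score within 2 library SDs, cut at about -5.5 in these data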
Target sequence (O88943 whole entry, looked up): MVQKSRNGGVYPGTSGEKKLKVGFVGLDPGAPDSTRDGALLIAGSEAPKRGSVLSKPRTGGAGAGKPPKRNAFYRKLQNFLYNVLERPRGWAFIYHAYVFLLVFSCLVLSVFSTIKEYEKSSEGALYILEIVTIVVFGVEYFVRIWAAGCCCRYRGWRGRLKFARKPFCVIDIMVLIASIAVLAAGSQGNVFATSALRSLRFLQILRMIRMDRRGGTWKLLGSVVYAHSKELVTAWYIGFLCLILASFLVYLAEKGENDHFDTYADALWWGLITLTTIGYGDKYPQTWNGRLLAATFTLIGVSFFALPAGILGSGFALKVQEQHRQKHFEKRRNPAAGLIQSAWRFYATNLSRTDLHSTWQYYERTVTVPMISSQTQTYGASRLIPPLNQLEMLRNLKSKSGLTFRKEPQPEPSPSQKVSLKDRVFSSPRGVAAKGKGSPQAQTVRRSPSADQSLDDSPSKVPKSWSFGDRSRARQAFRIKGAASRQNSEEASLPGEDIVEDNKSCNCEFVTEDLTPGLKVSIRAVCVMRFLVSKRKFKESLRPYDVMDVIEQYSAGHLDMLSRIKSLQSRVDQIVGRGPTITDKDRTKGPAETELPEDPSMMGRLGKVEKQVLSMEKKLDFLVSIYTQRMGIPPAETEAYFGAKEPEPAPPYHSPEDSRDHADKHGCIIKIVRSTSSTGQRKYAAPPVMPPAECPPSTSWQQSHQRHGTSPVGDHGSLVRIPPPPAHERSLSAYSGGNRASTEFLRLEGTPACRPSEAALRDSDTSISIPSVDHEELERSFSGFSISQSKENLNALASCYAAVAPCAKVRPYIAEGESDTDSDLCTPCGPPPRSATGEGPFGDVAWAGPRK
KCNQ2 inh baseline: recorded beside KCNQ2 inh, whose call it bears; B-score; measured here: initial fluorescence intensity artifact check;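 brightness before thallium and not channel activity; 0 = typical well and far values either way flag optical interference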
Numbers without * were called inactive; i = inactive. Only part of the results is shown; count on the stated rates, not on these rows.

SMILES | KCNQ2 inh | KCNQ2 inh baseline
COc1ccc(NC(=O)c2ccc3c(c2)CCN3S(=O)(=O)c2ccccc2)c(OC)c1 | i | 1.1
C=CCNC(=S)NC(CC(=O)OC)c1ccc2c(c1)OCO2 (configuration not stated) | i | -1.1
CC(=O)C1=C(C)OC(N)=C(C#N)C1c1cccc([N+](=O)[O-])c1 (configuration not stated) | i | -0.57
C[C@H](NS(=O)(=O)c1ccc(Cl)cc1)C(=O)OCC(=O)c1ccc[nH]1 | i | 0.68
COc1cc(C(=O)O)nc2ccccc12 | i | -0.56
Cn1c(=O)oc2cc(S(=O)(=O)NCCC(=O)N3CC=C(c4ccccc4)CC3)ccc21 | i | -1.3
CN(C(=O)CN1C(=O)/C(=C/c2ccccc2F)SC1=S)C1CCS(=O)(=O)C1 (configuration not stated) | i | 0.25
CCCCC1=CC2=C(c3ccco3)C(=O)C(C)(OC(=O)c3ccc(OC)cc3)C(=O)C2=CN1C1CCCC1 (configuration not stated) | i | 2.4
Cc1oc(-c2ccc(Cl)cc2)nc1CSCC(=O)NCCCN1CCOCC1 | i | -0.16
COc1cc(NC(=O)CN(C)S(=O)(=O)c2ccc3nc(C)sc3c2)cc(OC)c1 | i | 0.21
COc1ccccc1CC(=O)N1CCCc2cc(C)ccc21 | i | 0.02
CCOC(=O)c1cnc(SCC(C)C)nc1N | i | 2.3
Cc1ccc2oc(C(=O)NCc3ccc(S(N)(=O)=O)cc3)cc(=O)c2c1 | i | 0.83
NC(=O)c1ccccc1NC(=O)Nc1ccccc1Cl | i | 0.68
Cc1[nH]c2c(C)cccc2c1CCNS(=O)(=O)c1cccc([N+](=O)[O-])c1 | i | 0.33
CNC(=S)N1CCC(NC(=O)C(Cc2ccc(F)cc2)NC(C)=O)CC1 (configuration not stated) | i | 1.1
OCCN(Cc1ccccc1)Cc1cccc(Cl)c1Cl | i | -0.25
Cc1nc2ccccc2n(CC(=O)Nc2cc(Cl)cc(Cl)c2)c1=O | i | 1.1
Cc1ccccc1C(=O)N1CCN(CCNC(=O)C(=O)Nc2ccc(Br)cc2)CC1 | i | 1.7
O=C(Cn1cc2c(n1)CCCCC2)NCc1ccccc1 | i | 0.32
COc1ccc(-c2c3c(=O)n(C)c(=O)n(C)c3cn2Cc2cccnc2)cc1 | i | -0.16
O=C(CSc1nc(-c2ccc(F)cc2)cs1)N1CCc2ccccc21 | i | -0.25
CCC(=O)Nc1ccc(S(=O)(=O)N2CCCCC2)cc1OC | i | 0.17
Cc1cccc(C)c1NC(=O)CN(C)C(=O)CN1C(=O)NC2(CCCC2)C1=O | i | -1.1
O=C(NNS(=O)(=O)c1ccccc1)C1CCCCC1 | i | 0.16
Cn1c(=O)c(=O)n(C)c2cc(S(=O)(=O)N3CCCC3C(=O)Nc3ccc(F)cc3)ccc21 (configuration not stated) | i | -1.4
COc1ccc(C(=O)N2CC(c3ccccc3)CC2=O)cc1 (configuration not stated) | i | 0.05
COCCCNC(=S)N(CCO)Cc1cc2cc3c(cc2[nH]c1=O)OCCO3 | i | 1.3
Nc1cc(Cl)ccc1N1CCCCCC1 | i | 0.21
Cc1ccc(OCC(=O)NCc2cccs2)cc1 | i | 0.55
COc1cc(S(=O)(=O)Nc2ccncc2)ccc1F | i | 1.8
CC(=O)c1cccc(NC(=O)c2ccccc2-c2ccccc2C(=O)O)c1 | i | 0.14
O=C(COc1cc2oc(=O)c3c(c2cc1Cl)CCC3)NCCCN1CCCC1=O | i | -2.4
S=C(Nc1ccccc1)N1CCC(Cc2ccccc2)CC1 | i | -0.12
Cc1ccc(CNC(=O)C2CCN(S(=O)(=O)c3cccs3)CC2)o1 | i | 1.7
Cc1cccc(NC(=S)N/N=C/c2cccn2Cc2ccc(F)cc2)c1 | i | 4.5
Cc1ccc(NC(=O)CNC(=O)c2cccc(C)c2)nc1 | i | -0.67
O=C(NCCCN1CCOCC1)c1ccc(CNS(=O)(=O)c2ccc(Br)cc2)cc1 | i | 0.39
CC(C)C[C@@H](CO)N1CCN(Cc2cccc(C#N)c2)CCC1=O | i | -1.3
C(#Cc1ccccc1)C[N+]1(CC#Cc2ccccc2)CCCC1 | i | 1.5
N#CCc1ccc(OC(=O)Nc2ccccc2)cc1 | i | 0.13
CC(C)(C)NC(=O)C(c1ccccc1)N(Cc1ccco1)C(=O)c1csnn1 (configuration not stated) | i | -0.96
O=C(O)CC1(CC(=O)Nc2ccc3c(c2)OCCCO3)CCCCC1 | i | -1.2
CCOP(=O)(OCC)c1nc(-c2ccc(Br)cc2)oc1N1CCCCC1 | i | 0.39
COC(=O)c1ccc(-c2nc(-c3ccc(Br)o3)no2)cc1 | i | -0.36
CCOc1cc2nc(-c3ccc(OC)c(OC)c3)nc(N3CCOCC3)c2cc1OC | i | 0.06
Cc1ccc2c(C)c(C(=O)N3CCC(N4CCC(C(=O)NC5CC5)CC4)CC3)oc2c1 | i | -0.8
c1ccc(OCc2nn3c(-c4ccccn4)nnc3s2)cc1 | i | 0.04
COc1ccc(OC)c2sc(N3CCc4ccccc4C3)nc12 | i | -1.9
Brc1ccc(-c2nnc(SCCC3OCCCO3)o2)cc1 | i | -0.76
c1ccc(-c2csc3nnc(SCc4ccc5c(c4)OCCO5)n23)cc1 | i | 1.6
COc1ccc(-c2cc(CCCC(=O)NCc3ccccn3)no2)cc1 | i | 0.29
COc1cccc(OCC(O)CNC(=O)c2oc3c(C)c(C)ccc3c2C)c1 (configuration not stated) | i | 1.1
O=C(NCCc1ccccc1)C1CCCN(c2ncnc3c2nc2n3CCCCC2)C1 (configuration not stated) | i | 1.4
COc1ccc(CNc2ncnc3cc(Cl)ccc23)cc1OC | i | 1.5
Cc1ccsc1C(=O)OCC(=O)NCCNC(=O)COC(=O)c1sccc1C | i | -1.8
Cc1ccccc1C(=O)NCCNc1ccc([N+](=O)[O-])cc1 | i | 0.32
Fc1ccc(-c2ncc3ccccn23)cc1 | i | -1.6
Cc1ccccc1NC(=O)c1ccccn1 | i | 0.78
Cc1onc(-c2c(F)cccc2Cl)c1C(=O)N(Cc1ccccc1)C(C)C | i | 2.2
(further entries)
SMILES | KCNQ2 inh | KCNQ2 inh baseline
C=CCn1c(=O)c2ccccc2n2c(SCC(=O)N(C)C)nnc12 | i | 1.6
O=C(c1ccco1)N1CCN(c2ncnc3sc4c(c23)CCC4)CC1 | i | -0.02
COCCNC(=O)C1CC(c2ccccc2[N+](=O)[O-])=NO1 (configuration not stated) | i | 1.3
COC(=O)c1ccc(/C=N/OCC(=O)NC2CCCC(C)C2C)cc1 (configuration not stated) | i | 1.8
CC1CCCC(C)N1C(=O)CSc1nccc(=O)[nH]1 (configuration not stated) | i | -0.34
COC(=O)Nc1ccc(S(=O)(=O)N2CCCCC2C(=O)O)cc1 (configuration not stated) | i | 0.75
Cc1nc2sc(C(c3ccco3)N3CCC4(CC3)OCCO4)c(O)n2n1 (configuration not stated) | i | 1.1
CCOc1cc(CNCCO)cc(Br)c1OCc1ccc(Cl)cc1 | -8.1* | 0.58*
Cc1ccc(-c2[nH]ncc2CNCCc2cnn(-c3ccccc3)c2)cc1C | i | 3
O=C(NCCc1ccc(Cl)cc1)C1CC(=O)N(C2CCCCC2)C1 (configuration not stated) | i | -0.34
COc1cc(Cl)c(C)cc1NC(=O)CN1CCCCCC1 | i | -0.04
COC(=O)COc1ccc(/C=N/NC(=O)c2ccc(N(Cc3ccccc3)S(C)(=O)=O)cc2)cc1 | i | 0.69
Cc1cccc(-n2nnnc2SCn2nnc3ccccc3c2=O)c1 | i | 0.55
CCC/C(C)=N\Nc1nc2c(c(=O)n(C)c(=O)n2C)n1C | i | -0.45
CC(=O)N1CCCc2cc(S(=O)(=O)N3CCCC(C(=O)N4CCN(c5ccccc5)CC4)C3)ccc21 (configuration not stated) | i | -0.35
O=C(Nc1ccccc1C(=O)N1CCCCCC1)c1ccccc1Cl | i | -3
CC(=O)n1c2ccccc2c2nc(NC(C)C)sc21 | i | -1.1
CC(=O)Nc1ccc(NC(=O)COC(=O)/C(=C/c2ccccc2)n2nnnc2C)cc1 | i | 0.83
O=C(CSCc1ccccc1Cl)Nc1ccc2c(c1)OCCO2 | i | 0.45
CC1CN(C(=O)c2ccn(C)n2)CC(C)O1 (configuration not stated) | i | 0.74
COc1ccc(OC)c(-c2csc(NC(=O)CN3C(=O)C4CCCCC4C3=O)n2)c1 (configuration not stated) | i | 0.09
CC1=Nc2cc(C(=O)NCCCN3CCOCC3)ccc2Sc2c(C)ccc(C)c21 | i | 0.74
CC(C)CNC(=O)COC(=O)c1ccc([N+](=O)[O-])cc1Cl | i | 1.4
CCOC(=O)c1cc(-c2cccs2)nc2c1c(C)nn2-c1ccccn1 | i | -0.67
Cc1cc(S(=O)(=O)N2CCOCC2)ccc1OCC(=O)Nc1cccc(C(F)(F)F)c1 | i | -1.4
Cc1ccc(NCc2nnc(SCC(=O)Nc3cccc(O)c3)n2CC2CCCO2)c(C)c1 (configuration not stated) | i | 0.26
CN(C(=O)c1ccco1)c1nc(-c2ccc(Cl)cc2)cs1 | i | -1.2
CCCN(CCC)C(=O)c1c(NC(=O)CC)sc2c1CCCCC2 | i | 3.5
COCCn1c(SCC(=O)c2ccccc2)nc2ccccc2c1=O | i | 1.7
Cc1nc(CSc2nc3[nH]ncc3c(=O)n2-c2ccccc2)cs1 | i | 0.07
CC(=O)N1CCCc2cc(S(=O)(=O)CCC(=O)Nc3cccc(C)c3C)ccc21 | i | 1.8
COc1ccc(S(=O)(=O)N2CCN(S(=O)(=O)c3ccc(C(F)(F)F)cc3)CC2)cc1C | i | 1.5
COc1ccc(CCNC(=O)Nc2cccs2)c(OC)c1 | i | -2.9
COc1ccc(C(=O)Nc2ccccc2C(=O)Nc2cccnc2)cc1 | i | 0.05
O=C(CN1C(=O)C2CCCCC2C1=O)N1CCN(c2ccccc2)CC1 (configuration not stated) | i | 1.2
CCOC(=O)/C=C1\SCC(=O)N1CC(=O)Nc1ccccc1OC(F)F | i | -0.17
CCOc1ccc(NC(=S)Nc2ccccc2C2CC2)cc1 | i | -0.01
CC(=O)c1cccc(NC(=O)NCc2ccccn2)c1 | i | -0.13
C=CC[C@H]1CC(C)=C[C@H](CC=C)N1 | i | -0.55
COc1ccc(/C(C)=N/NC(=O)C(NC(=O)c2ccccc2)c2n[nH]c(=O)c3ccccc23)c(OC)c1 (configuration not stated) | i | -0.01
Cc1ccc(C(=O)N/N=C/C2=Cc3ccccc3OC2C)cc1 (configuration not stated) | i | 0.46
COc1ccc(NC(=S)N(CCN2CCOCC2)Cc2cc3cc4c(cc3[nH]c2=O)OCCO4)cc1 | i | 0.43
CCCCNC(=O)CSc1nc2ccc(N3CCOCC3)cc2c(=O)n1CCc1ccccc1 | i | -0.05
Cc1ccc(Br)cc1S(=O)(=O)N1CCN(c2ccccc2)CC1 | i | 0.01
Cc1ccc(C(=O)OCn2nnc3ccccc3c2=O)cc1[N+](=O)[O-] | i | -1.5
CC12CCCCC1c1ccccc1C(=NCC(=O)O)N2 (configuration not stated) | i | -0.18
Cc1[nH]c(=O)[nH]c(=O)c1NC(=O)c1sc2nc3c(C)cccc3cc2c1N | i | 0.24
COC(=O)CCC(=O)N(CCN(C(=O)CCC(=O)OC)c1ccccc1)c1ccccc1 | i | -0.01
CC(C)c1ccccc1NC(=O)COC(=O)c1cc(=O)[nH]c(=O)[nH]1 | i | 0.08
Cc1ccc(NC(=O)C2CCCN2C(=O)Oc2ccccc2)cc1C (configuration not stated) | i | 0.52
CC1CCCCN1C(=O)Cn1cnc2c1c(=O)n(C)c(=O)n2C (configuration not stated) | i | -0.04
CCn1cc(CNC(=O)c2ccc(OC3CCN(Cc4ccccn4)CC3)cc2)cn1 | i | 0.37
Cc1ccc(C(=O)N2CCN(c3ccc([N+](=O)[O-])cc3)CC2)o1 | i | 2.3
CCn1c(CNc2ccc(Cl)cc2)nnc1SCc1ccc(C)cc1 | i | 1.1
O=C(CC1C(=O)NCCN1Cc1ccc(F)c(F)c1)NCCCn1ccnc1 (configuration not stated) | i | 0.18
CCOC(=O)c1cccc(NC(=O)CCc2nnc3ccc(N4CCCCC4)nn23)c1 | i | 0.46

By substructure: the compounds so far with a Cl atom.
SMILES | KCNQ2 inh | KCNQ2 inh baseline
C[C@H](NS(=O)(=O)c1ccc(Cl)cc1)C(=O)OCC(=O)c1ccc[nH]1 | i | 0.68
Cc1oc(-c2ccc(Cl)cc2)nc1CSCC(=O)NCCCN1CCOCC1 | i | -0.16
NC(=O)c1ccccc1NC(=O)Nc1ccccc1Cl | i | 0.68
OCCN(Cc1ccccc1)Cc1cccc(Cl)c1Cl | i | -0.25
Cc1nc2ccccc2n(CC(=O)Nc2cc(Cl)cc(Cl)c2)c1=O | i | 1.1
Nc1cc(Cl)ccc1N1CCCCCC1 | i | 0.21
O=C(COc1cc2oc(=O)c3c(c2cc1Cl)CCC3)NCCCN1CCCC1=O | i | -2.4
COc1ccc(CNc2ncnc3cc(Cl)ccc23)cc1OC | i | 1.5
Cc1onc(-c2c(F)cccc2Cl)c1C(=O)N(Cc1ccccc1)C(C)C | i | 2.2
CCOc1cc(CNCCO)cc(Br)c1OCc1ccc(Cl)cc1 | -8.1* | 0.58*
O=C(NCCc1ccc(Cl)cc1)C1CC(=O)N(C2CCCCC2)C1 (configuration not stated) | i | -0.34
COc1cc(Cl)c(C)cc1NC(=O)CN1CCCCCC1 | i | -0.04
O=C(Nc1ccccc1C(=O)N1CCCCCC1)c1ccccc1Cl | i | -3
O=C(CSCc1ccccc1Cl)Nc1ccc2c(c1)OCCO2 | i | 0.45
CC(C)CNC(=O)COC(=O)c1ccc([N+](=O)[O-])cc1Cl | i | 1.4
CN(C(=O)c1ccco1)c1nc(-c2ccc(Cl)cc2)cs1 | i | -1.2
CCn1c(CNc2ccc(Cl)cc2)nnc1SCc1ccc(C)cc1 | i | 1.1
